# VDR inhibitor = vitamin D3 receptor (human) inhibition; P11473; AID 504847; Potency, µM, for the others: max response, negative = inhibition, most hits filed as inhibitors; VDR-SRC2-3 peptide fluorescence polarization, 2 h; actives 0.93% (n = 400,000); active = well fitted inhibition curve with a large enough effect; inconclusive = small, poorly fitted or top-dose-only effect, or another doubt; inactive = no such curve, though single readings can be large or run the other way; note: series mostly up to about 120 µM
# Target sequence (P11473 whole entry, looked up): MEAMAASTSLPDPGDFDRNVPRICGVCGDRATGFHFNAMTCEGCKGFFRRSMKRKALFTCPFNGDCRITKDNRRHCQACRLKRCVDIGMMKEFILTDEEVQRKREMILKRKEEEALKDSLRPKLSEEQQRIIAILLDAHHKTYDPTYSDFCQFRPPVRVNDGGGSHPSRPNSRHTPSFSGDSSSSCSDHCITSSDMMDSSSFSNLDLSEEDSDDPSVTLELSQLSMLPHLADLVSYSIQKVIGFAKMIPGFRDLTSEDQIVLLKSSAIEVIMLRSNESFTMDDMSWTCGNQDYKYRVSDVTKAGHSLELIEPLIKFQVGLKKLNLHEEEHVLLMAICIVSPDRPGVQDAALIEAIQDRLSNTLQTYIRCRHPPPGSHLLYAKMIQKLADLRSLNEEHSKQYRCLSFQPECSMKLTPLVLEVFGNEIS
#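 Fluorescence polarization assay measuring small-molecule disruption of VDR binding to the coregulator peptide SRC2-3. Compounds were pin-transferred (23 nl) into the reagent mix and incubated 2 h at room temperature before reading.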
# * hit, by the source's call; u = inconclusive; & = joins results of further samples; [ ] = remark or other dose. % is set by controls: 0 for no effect and ±100 for the full control effect; potency is the fitted concentration of half-maximal effect.
SMILES,VDR inhibitor
COc1ccc(-c2nc3sc(CCNS(=O)(=O)c4ccc(F)c(C)c4)c(C)n3n2)cc1,16.0%
CN(c1ccccc1)S(=O)(=O)c1ccc(C(=O)Nc2nnc(-c3ccco3)o2)cc1,-25.3%
O=C(c1ccc(Cl)c([N+](=O)[O-])c1)N(Cc1ccc(F)cc1)C1CCS(=O)(=O)C1 (centres undefined),2.3%
COc1ccccc1NC(=O)c1ccc(CN(c2cc(Cl)ccc2C)S(=O)(=O)c2ccccc2)cc1,5.4%
CCOc1cc(N2CCOCC2)c(OCC)cc1NC(=O)c1c(-c2ccccc2Cl)noc1C,12.0%
COc1ccc(OCc2nnc(SCC(=O)N3C(C)CCCC3C)o2)cc1 (centres undefined),15.1%
COc1ccc(NC(=O)C2CCCN2c2ccc(OC)c(OC)c2)cc1OC (centres undefined),-4.7%
Cc1cc(OCC(=O)OCC(=O)N2CCc3ccccc3C2)ccc1Cl,13.2%
Fc1ccc(C[n+]2csc3ccccc32)cc1,39.8µM*
N#C/C(=C(/O)CN1CCOCC1)c1nc2ccccc2s1,26.8%
Cc1ccc(S(=O)(=O)N2CCC(Oc3cccc(C(F)(F)F)c3)CC2)cc1,-14.1%
COc1cccc(-n2c(=O)c3cc(OC)c(OC)cc3n(CC(=O)Nc3cc(C)[nH]n3)c2=O)c1,8.3%
Cc1ccc2cccc(OCC(=O)Nc3ccc(N4CCOCC4)cc3)c2n1,19.2%
COCCCNC(=O)c1ccc(Cn2c(=O)c3ccccc3n(Cc3ccc(C)cc3)c2=O)cc1,-10.5%&6.6%
CCCS(=O)(=O)c1c(S(=O)(=O)CCC)c2c3ccccc3ccn2c1C(N)=O,-4.6%

# A portion of the results above, for reference:
SMILES,VDR inhibitor
COc1ccc(-c2nc3sc(CCNS(=O)(=O)c4ccc(F)c(C)c4)c(C)n3n2)cc1,16.0%
CN(c1ccccc1)S(=O)(=O)c1ccc(C(=O)Nc2nnc(-c3ccco3)o2)cc1,-25.3%

# 4 entries from above, ordered by number of heavy atoms, falling.
SMILES,VDR inhibitor
CCOc1cc(N2CCOCC2)c(OCC)cc1NC(=O)c1c(-c2ccccc2Cl)noc1C,12.0%
Cc1ccc2cccc(OCC(=O)Nc3ccc(N4CCOCC4)cc3)c2n1,19.2%
Cc1ccc(S(=O)(=O)N2CCC(Oc3cccc(C(F)(F)F)c3)CC2)cc1,-14.1%
Cc1cc(OCC(=O)OCC(=O)N2CCc3ccccc3C2)ccc1Cl,13.2%

# Next entries follow.
SMILES,VDR inhibitor
CC(C)OC(=O)CN1C(=O)C(C)(C)Oc2ccc(C(=O)NC3CC3)cc21,-4.5%
COCC(=O)N(Cc1ccc(OC)cc1)Cc1nc2ccccc2c(=O)[nH]1,0.1%
CCCN1CNC(=S)N(CCc2ccccc2)C1,-4.2%
O=C(CSc1nc(O)c(Cc2ccccc2F)c(=O)[nH]1)N1CCCCCC1,-8.6%
Oc1ccc(-c2csc(Nc3ccc4c(c3)OCO4)n2)c(O)c1,-13.8%
CN(CC(=O)Nc1ccccc1)CC(=O)Nc1ccccc1Cl,23.9%
Cc1ccc(NC(=O)c2cc(S(=O)(=O)N3CCCCC3)cs2)cc1,6.8%
O=C1/C(=C\c2ccc(O)c(O)c2)SC(=S)N1Cc1ccccc1,-2.5%
COC(=O)Cc1ccc(NC(=O)C(c2ccccc2)c2ccccc2)cc1,7.9%
CCc1ccc(-c2cc(C)no2)cc1S(=O)(=O)NCc1ccc(OC)c(OC)c1,1.0%
COc1cc(-c2ccno2)ccc1S(=O)(=O)N1CCN(c2ccccc2)CC1,-2.5%
CCS(=O)(=O)N1CCc2cc(C(=O)NCc3ccccc3Cl)ccc21,20.8%
O=C1c2ccc3c4c(ccc(c24)C(=O)N1c1cccc(O)c1)CC3,30.4%[activator]
O=C(CSc1nc(N2CCCCC2)nc(N2CCCCC2)n1)c1ccccc1,-2.6%
CN(C)S(=O)(=O)c1ccc(C(=O)N2CCOCC2)cc1,14.5%
O=C(c1ccccc1)c1ccc2nc(N3CCN(c4ccccc4)CC3)c3nncn3c2c1,-1.2%
COc1ccccc1NC(=O)CCc1nc2sc3c(c2c(=O)[nH]1)CCCC3,-1.2%
O=C(NCc1cccs1)c1ccccc1[N+](=O)[O-],12.8%
CCc1cccc(NC(=O)Cn2nc(CC)n3c(cc4cc(C)ccc43)c2=O)c1,10.1%
O=C(CSc1ncccn1)NC(=O)NCc1ccco1,-2.9%
NS(=O)(=O)c1ccc(NC(=O)COC(=O)CCc2nc3ccccc3c(=O)[nH]2)cc1,-21.7%
COc1cc2cc(Oc3ccc4ccc(=O)oc4c3)c(=O)oc2cc1OC(=O)/C=C/c1ccccc1,18.5%
Cc1ccc(-c2csc3ncn(CC(N)=O)c(=O)c23)cc1C,3.1%
CC(=O)c1ccc(NC(=O)CSc2nnc(NC(=O)CN3CCOCC3)s2)cc1,-4.6%
CN(C)C(=O)N1CCC(C(=O)NCc2ccccc2)CC1,-1.8%
O=[N+]([O-])c1cc(/C=N/Nc2nc(N3CCCCC3)nc(N3CCCCC3)n2)ccc1O,-8.4%
COc1ccc(C(=O)NCCONC(=O)c2ccc(OC)cc2)cc1,1.0%
COc1ccc(CCNC(=O)c2ccc(S(=O)(=O)N(C)c3ccccc3)cc2)cc1OC,-12.8%
COC(=O)[C@]1(C)N[C@H](CN(C)C(=O)COc2ccccc2)[C@@H]2C(=O)N(C)C(=O)[C@@H]21,-6.6%
CCc1ccc(N2C(=O)C(Cl)=C(N3CCCCCC3)C2=O)cc1,-6.6%
CC(C)CNC(=O)c1cccc(NC(=O)c2ccc3c(c2)C(=O)N(C)C3=O)c1,-18.1%
Cn1c2ccccc2c2cc(/C=C(\NC(=O)c3ccccc3)C(=O)NCC(=O)O)ccc21,-5.0%
O=C(CSc1nnc(-c2ccc(F)cc2)c2ccccc12)Nc1cccc(Cl)c1,-12.1%
NS(=O)(=O)c1ccc(CCNC(=O)c2ccc3nc(CCc4ccccc4)oc3c2)cc1,19.9%
CCOC(=O)c1c(C)n(C)c2c(C)cc(O)c(OC(=O)CC)c12,7.3%
CCCc1cc(=O)oc2cc(C)c3c(-c4ccccc4)coc3c12,4.1%
Fc1cccc(-c2nnn3c2nc(NC2CCCCC2)c2ccccc23)c1,-13.3%
CC(=O)Nc1ccc2c(CN3C(=O)NC(C)(c4ccc(C)cc4)C3=O)cc(=O)oc2c1 (centres undefined),0.6%
Cc1cc(=O)n(C(C)C(=O)N2CCCc3ccccc32)c2c1c(C)nn2-c1ccccc1 (centres undefined),8.2%
O=C(CSc1ccccc1)NC1CCCCCCC1,7.6%
CC1=C(C(=O)OCc2ccccc2)C(c2ccc([N+](=O)[O-])cc2)NC(=O)N1C (centres undefined),-11.4%
CC(=O)NC(=S)Nc1ccc(NC(=S)NC(=O)c2cccs2)cc1,-7.6%
COc1ccc(-c2nn(Cc3ccccc3)cc2C(=O)N2CCN(c3ncccn3)CC2)cc1OC,6.7%
OC1(c2ccccc2)CN(c2ccccc2)C2=[N+]1CCS2 (centres undefined),-9.2%
Cc1ccc(S(=O)(=O)N2CCCc3cc(NC(=O)c4ccc(C(C)(C)C)cc4)ccc32)cc1,12.1%
O=C(O)CCCC(=O)N1CCc2cc(S(=O)(=O)NCc3ccccc3)ccc21,-3.8%&-5.5%
O=[N+]([O-])c1ccc(-c2ncc(-c3ccc(Br)cc3)o2)cc1,12.7%
CC(c1ccccc1)n1c(S(=O)(=O)O)nc2ccccc21 (centres undefined),2.0%
COC(=O)c1ccc(Cl)c(NC(=O)CN2CCN(C)CC2)c1,1.0%
CCOc1ccc(CNC(=O)c2ccc(NC(=O)N3CCSc4ncccc43)cc2)cc1,0.8%
O=C(OCC(=O)N1CCCC1)c1ccc(NS(=O)(=O)c2cccs2)cc1O,-1.7%
CCC(C)NC(=O)CCCc1ccccc1 (centres undefined),-2.3%
COCCCNc1nc2c(-c3ccccc3)nnn2c2ccccc12,-13.3%
CC(NC(=O)N1CCOCC1)c1ccccc1 (centres undefined),8.2%
COc1cc(OC)cc(N2C(=O)N(Cc3ccc(C(C)(C)C)cc3)c3ccccc3S2(=O)=O)c1,20.8%
CCCc1[nH]nc2c1C(c1cn[nH]c1-c1ccc(F)cc1)C(C#N)=C(N)O2 (centres undefined),-23.1%
O=C(Cc1ccccc1)Nc1ccc(Br)c(Cl)c1,-9.9%
COc1ccccc1N(CC(=O)N1CCC(C(N)=O)CC1)S(=O)(=O)c1ccccc1,15.3%
Cc1nc(NC(=O)C2CC2)sc1C(=O)NC1CCCCC1,7.6%
CSC1=NCCN1C(=O)c1ccc(S(=O)(=O)N2CCCC2)cc1,-8.4%

# Next section
SMILES,VDR inhibitor
c1ccc(Cn2nnnc2C(c2cccnc2)N2CCN(C3CCCCC3)CC2)cc1 (centres undefined),-1.3%
CCCCN(C(=O)CSc1nncn1-c1ccccc1OC)c1c(N)n(Cc2ccccc2)c(=O)[nH]c1=O,-7.4%
Oc1cccc(C(=S)N2CCN(Cc3ccccc3)CC2)c1,-27.2%
COc1ccc(OC)c(NC(=O)C2CCCCC2)c1,-12.7%
COCC1CCN(Cc2cn(C)nc2-c2cccc(Cl)c2)C1 (centres undefined),-2.2%
Cc1cc(C(=O)Nc2cnc3ccccc3c2)ccc1[N+](=O)[O-],1.2%
CCN(CC)S(=O)(=O)c1ccc(N2CCOCC2)c(NC(=O)COc2ccccc2C#N)c1,5.6%
CCOC(=O)c1cc(C(=O)NCc2ccc(Cl)cc2Cl)nn1C,-3.1%
Cc1ccc(OCCNC(=O)c2ccc(NC(=O)CC3SC(N4CCCC4)=NC3=O)cc2)cc1 (centres undefined),-4.5%
Cc1cc(=O)[nH]c(SCC(=O)c2ccc(C(C)C)cc2)n1,17.8%
COC(=O)c1cc(Nc2cc(C)c3c(O)cccc3n2)cc(C(=O)OC)c1,-7.7%
O=C(CSc1nc2c(oc3ccccc32)c(=O)[nH]1)Nc1cccc(Cl)c1,-7.9%
COc1c2ccoc2c(OC(C)=O)c2oc(C)cc(=O)c12,-12.3%
CC1=C(SCCC#N)S/C(=C2\SC(C)=C(SCCC#N)S2)S1,-100.0%
CCc1nc(N[C@H](C(=O)O)C(C)C)c2oc3ccccc3c2n1,-13.6%
COCCNC(=O)c1ccc(N2CC3CC(C2)c2cccc(=O)n2C3)c(NC(=O)c2ccc(F)cc2)c1 (centres undefined),-16.8%
O=C(Nc1ccccc1)N(Cc1ccccc1)Cc1ccccc1,-7.2%
c1ccc(-c2ccc(OCCCNC3CCCC3)cc2)cc1,1.0%
Cc1c(N(C(=O)c2cc(=O)[nH]c3ccccc23)C(C)C)c(=O)n(-c2ccccc2)n1C,15.9%
Cc1ccc(NC(=O)Nc2ccc(F)c(Cl)c2)cc1,-1.9%
Cc1cc(C)c(NC(=O)COc2ccccc2C(=O)Nc2ccc3c(c2)oc2ccccc23)c(C)c1,23.5%
CC1(C)CC(NC(=O)c2ccc(Cl)cc2)CC(C)(C)N1,-1.8%
COc1ccc(C(Nc2ccccn2)c2c(NC(=O)c3ccco3)sc(C)c2C)cc1OC (centres undefined),-7.6%
Cc1noc(C)c1-c1nccc(N(C)Cc2ccco2)n1,44.7µM*
CCOc1ccccc1Nc1ccc2cc(S(=O)(=O)N3CCCCC3)ccc2n1,8.9%
Cc1ccc(CSc2nc(=O)c3c(C)cc(C)nc3n2C2CC2)cc1,12.7%
CCc1nc2nc(C)c(NS(=O)(=O)c3ccc(Cl)cc3)c(=O)n2[nH]1,0.9%
CC1Cc2ccccc2N1CC(=O)NC(=O)NCc1ccccc1 (centres undefined),8.0%
CCc1ccc(NC(=O)CSc2nc(-c3cccc(OC)c3)nc3c2Cc2c(CO)cnc(C)c2O3)cc1,-2.6%
CSc1ncccc1C(=O)N1CCCC(C(=O)c2cc(F)ccc2F)C1 (centres undefined),-18.2%

# Next section; it opens with the 3 that closed the last part.
SMILES,VDR inhibitor
CC1Cc2ccccc2N1CC(=O)NC(=O)NCc1ccccc1 (centres undefined),8.0%
CCc1ccc(NC(=O)CSc2nc(-c3cccc(OC)c3)nc3c2Cc2c(CO)cnc(C)c2O3)cc1,-2.6%
CSc1ncccc1C(=O)N1CCCC(C(=O)c2cc(F)ccc2F)C1 (centres undefined),-18.2%
CCOC(=O)c1c(C)n(-c2ccccc2)c2ccc(OC(=O)c3cccc(Cl)c3)cc12,-14.6%
COc1ccc(-n2c(N)c(C(=O)NCc3ccco3)sc2=S)cc1,-6.1%
Cc1cc(-c2ccccc2)c2c(=O)[nH][nH]c2n1,-21.1%
N[C@H](CO)Cc1cnc[nH]1,-0.8%
CN(C)S(=O)(=O)c1ccc(Cl)c(NC(=O)COC(=O)c2ccc(O)cc2)c1,-11.9%
COc1ccc(OCC(=O)N(Cc2cccs2)c2ccc(OC)cc2)cc1,11.2%
Cc1c(NC(=O)c2cccc(NC(=O)Cc3ccc(Cl)cc3)c2)c(=O)n(-c2ccccc2)n1C,29.7%
CCOc1ccc2nc(Cl)c(C3CC(c4ccc(C)cc4)=NN3C(=O)CCC(=O)O)cc2c1 (centres undefined),-21.6%
COC(=O)c1ccccc1NC(=S)NC(=O)c1ccccc1F,-22.4%
Cn1nc(-c2ccc(C(=O)Nc3ccc(F)cc3)cc2)c2ccccc2c1=O,-8.2%&-4.9%
COc1ccc(S(=O)(=O)N2CCC(C(=O)NCCN3CCOCC3)CC2)cc1,10.7%
COc1ccccc1CN(C)C(=O)C1COc2ccccc2O1 (centres undefined),-11.3%
CCc1ccc(S(=O)(=O)c2cn(Cc3ccccc3F)c3cc(OC)c(OC)cc3c2=O)cc1,-11.4%
O=C(CCC(=O)OCC(=O)c1cccc([N+](=O)[O-])c1)Nc1ccccc1Cl,6.6%
N#Cc1cccc(NC(=O)N2CC[C@@]3(CCCN(C(=O)c4cccc(F)c4)C3)C2)c1,-0.3%
COC(=O)C1=CN(C(C)C)C=C(C(=O)OC)C1c1cc(Br)c(OC)c(OC)c1,-0.8%
c1cc(-c2nsc(-c3ccncc3)n2)ccn1,u
CN(C)c1ccc(NC(=O)CN2CCN(CC(=O)Nc3ccc(Br)cc3)CC2)cc1,3.0%
O=C(CC(O)(c1ccccc1)c1ccccc1)Nc1ccccn1,1.2%
Nn1cnc2scc(-c3ccco3)c2c1=O,-17.3%
CCCC(=O)Nc1cccc(NC(=O)c2ccccc2Br)c1,2.3%

# Source: PubChem

# The list is partial; count on the stated rates, not on these rows.
